# Lassa entry inh = Lassa virus entry inhibition. Potency, µM (highest dose often 37.9 µM), inactives show at the highest dose activity change, negative = inhibition, most hits filed as inhibitors. 1.2% of 300,000 active. AID 540256. Lassa virus pseudotype entry inhibition, cell reporter; control for the full effect not named in the record; active means well fitted inhibition curve with a large enough effect; inconclusive means small, poorly fitted or top-dose-only effect, or effect the other way; inactive means flat fitted curve, though single readings scatter; tested in HEK293 cells; further: on the % scale 0 is the no-effect control and ±100 the full control effect; nearly all actives have a fitted effect of over 50% in size; luciferase read-out
# Cruzain Triton = cruzain (T. cruzi) inhibition with detergent; P25779; purified cruzain, Z-FR-AMC fluorescence, 0.01% Triton; Potency, µM, inactives show max response, negative = inhibition, actives largely listed as inhibitors; 0.43% of 200,000 active; AID 1478; active means well fitted curve in the direction sought with a large enough effect; inconclusive means small, poorly fitted or top-dose-only effect, or another doubt; inactive means no such curve, though single readings can be large; an effect the other way counts as inactive or inconclusive;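 further: plate controls were neutral wells for no effect and buffer without enzyme for full effect; nearly all actives have a fitted effect of over 40% in size; top concentration of the series not given in the record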
# Target sequence (P25779 123-467 limits assumed): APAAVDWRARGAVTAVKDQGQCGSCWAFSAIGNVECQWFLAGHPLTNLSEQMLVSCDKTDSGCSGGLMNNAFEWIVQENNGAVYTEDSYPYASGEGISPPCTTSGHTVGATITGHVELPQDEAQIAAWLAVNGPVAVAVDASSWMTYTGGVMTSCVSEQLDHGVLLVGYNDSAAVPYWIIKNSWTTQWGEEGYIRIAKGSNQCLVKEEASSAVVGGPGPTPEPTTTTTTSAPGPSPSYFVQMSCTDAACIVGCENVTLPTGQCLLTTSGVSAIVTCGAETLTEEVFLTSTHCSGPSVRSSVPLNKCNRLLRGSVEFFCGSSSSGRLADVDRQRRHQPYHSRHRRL
#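 Steps: dispense cruzain (1.5 nM final) in acetate buffer pH 5.5 with DTT and 0.01% Triton X-100; pin-transfer compounds; incubate 15 min RT; add Z-FR-AMC (2 uM final); read fluorescence every 30 s, using the 60 s intensity change.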
# 2A StopGo = FMDV 2A StopGo reporter, luciferase signal; human cells with a luciferase reporter of 2A StopGo recoding; control for the full effect not named in the record; Potency, µM (titrated, usually from 57.9 µM), without a hit: top-dose signal change, negative = less light; 1.2% of 410,000 active; AID 1159524; active = well fitted falling curve with a large enough effect; inconclusive = small, poorly fitted or top-dose-only effect; inactive = no such curve, though single readings can be large or run the other way; tested in HEK293T cells; further: on the % scale 0 is the no-effect control and ±100 the full control effect; nearly all actives have a fitted effect of over 45% in size; luciferase light after 4 h
# NS1 inh = blocks influenza NS1 protein function; S. cerevisiae slowed by influenza A NS1, growth recovery by OD600; Potency, µM (doses to about 46.1 µM), inactives show at the top dose activity, positive = more growth; 0.4% of 270,000 active; further: actives are rising curves; nearly all actives have a fitted effect of over 50% in size
#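 OD600 was taken as the measure of yeast growth restored by compound in an NS1-expressing S. cerevisiae strain. Cells had been washed out of glucose medium and diluted 1:100 into galactose -URA medium, pH 6.0.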
# RE007 growth inh = less growth of the S. pombe RE007 Vpr strain; 0.21% of 360,000 active; S. pombe RE007 Vpr strain, BacTiter-Glo ATP luminescence, 24 h; control for the full effect not named in the record; Potency, µM (series often up to 92.2 µM), without a hit: at the highest dose activity change, negative = less growth; active = well fitted falling curve with a large enough effect; inconclusive = small, poorly fitted or top-dose-only effect; inactive = no such curve, though single readings can be large or run the other way;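 further: on the % scale 0 is the no-effect control and ±100 the full control effect; nearly all actives have a fitted effect of over 50% in size; the assay follows cell death caused by Vpr and the record does not say whether a fall means rescue or toxicity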
#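 Fission yeast strain RE007, carrying one chromosomally integrated HIV-1 vpr copy, was seeded at OD 0.01 in PMG+AL medium with 23 nL pinned compound. After 24 h at 30 °C and 99% humidity, viability was read by BacTiter-Glo luminescence.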
# SARS PLpro yeast = SARS-CoV PLP inhibition in yeast. S. cerevisiae expressing SARS-CoV PLpro, growth rescue; control for the full effect not named in the record. Potency, µM (doses to about 32.9 µM), for inactives: top-dose activity, positive = growth rescue. 0.19% of 330,000 active; further: 0% is about no effect; nearly all actives have a fitted effect of over 55% in size; growth read by luminescence after 48 h
# Cruzain inh noDet = cruzain (T. cruzi) inhibition without detergent | P25779 | purified cruzain, Z-FR-AMC fluorescence, no detergent | Potency, µM, for inactives: max response, negative = inhibition, usual class: inhibitors | 2.3% of 200,000 active | AID 1476; active means well fitted curve in the direction sought with a large enough effect; inconclusive means small, poorly fitted or top-dose-only effect, or another doubt; inactive means no such curve, though single readings can be large; an effect the other way counts as inactive or inconclusive;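 further: plate controls were enzyme without inhibitor for no effect and buffer without enzyme for full effect; nearly all actives have a fitted effect of over 40% in size; top concentration of the series not given in the record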
#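 Detergent-free condition (0.00005% Triton X-100) in acetate buffer pH 5.5 with DTT. 1.5 nM enzyme and compound were pre-mixed 15 min, then 2 uM Z-FR-AMC substrate added; reaction progress from fluorescence change between first and third reads (60 s).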
# MARV entry inh = Marburg virus entry inhibition | Marburg virus pseudotyped entry inhibition, cell reporter; control for the full effect not named in the record; about a third of the inactives were read at about 46 µM | Potency, µM (doses to about 37.8 µM), for inactives: at the top dose activity change, negative = inhibition, hits mostly inhibitors | 1.8% of 300,000 active | AID 540276; active = well fitted inhibition curve with a large enough effect; inconclusive = small, poorly fitted or top-dose-only effect, or effect the other way; inactive = flat fitted curve, though single readings scatter; tested in HEK293 cells; about a fifth of its hits are not listed in these tables; further: on the % scale 0 is the no-effect control and ±100 the full control effect; luciferase read-out
# Active calls of the source: *; ? = inconclusive; . = no result given; & = joins results of further samples; [ ] = dose if it differs, or a comment. Unless noted, the call rests on the fitted dose curve; in most records, active means well fitted rising curve with a large enough effect; inconclusive means small, poorly fitted or top-dose-only effect; inactive means no such curve, though single readings can be large or run the other way. Potency means the concentration at half of the fitted maximal effect.
SMILES,Lassa entry inh,Cruzain Triton,2A StopGo,NS1 inh,RE007 growth inh,SARS PLpro yeast,Cruzain inh noDet,MARV entry inh
Cc1ccc(SCC(=O)NC(=O)NC2CCCC2)c(C)c1,?,.,-9%,.,1%,3%,.,?
O=S(=O)(Nc1cccnc1Cl)c1ccc(-c2ccccc2)cc1,-1%[46.1 µM],.,7%,-80%,-6%,-10%,.,-8%[46.1 µM]
Cn1cc(/C=C2\SC(=S)N(N3CCOCC3)C2=O)c2ccccc21,-10%[46.1 µM],.,-5%,-1%,-17%,0%,.,16%[46.1 µM]
CCOc1ccc(CCNS(=O)(=O)c2cnc[nH]2)cc1OCC,2%,5.5%,3%,?,3%,4%,2%,4%
Cc1c(CC(=O)NCC(=O)NCC(=O)O)c(=O)oc2c(C)c3oc4c(c3cc12)CCCC4,.,.,5%,3%,9%,0%,.,.
CCOC(=O)c1c(NC(=O)CSc2nnc(-c3cccnc3)o2)sc(C)c1C,14%,-5.3%,-6%,-56%,3%,20%,?,18%&18%
Cc1ccc2nc(-c3ccc(Cl)c(NC(=O)c4cccnc4)c3)oc2c1,3%[46.1 µM],-1.3%,49%[activator],.,.,.,-4%,22%[46.1 µM]
CN(C)S(=O)(=O)c1cccc(C(=O)NCCc2ccccc2)c1,?,2.8%,?,-5%,11%,4%,-10%,?
COc1ccc(-c2cc(=O)oc3c(C)c(OC(C)C(=O)NCc4ccccn4)ccc23)cc1 (stereo not drawn),.,.,?,-16%,7%,-7%,.,.
O=S1(=O)CC(O)C(N2CCC(c3ccccc3)CC2)C1 (stereo not drawn),0%,2.2%,.,4%,-5%,-1%,-4%,21%
CCOc1ccccc1N/C=C(\C#N)c1nc2ccccc2n1C,-4%,-4.1%,5%,5%,5%,-12%,-16%,?
O=C(COC(=O)c1ccc(S(=O)(=O)NCc2ccco2)cc1)Nc1ccccc1OC(F)F,23%,-6.8%,17%,-1%,-1%,5%,-19%,2%
CNCCC(Oc1ccccc1OC)c1ccccc1 (stereo not drawn),?,0.6%,-19%,-7%,-11%[18.4 µM],.,1%,18µM*
Cn1c(SCC(=O)c2ccccc2)ncc(C(=O)Nc2ccc(F)cc2)c1=O,3%,.,-14%,.,2%,.,.,10%
O=C(COc1nc2ccccc2nc1N1CCOCC1)NCC(F)(F)F,8%,-5.1%,-18%,1%,8%,-7%,-4%,15%
Cc1oc(-c2ccccc2F)nc1CN1CCC(C(=O)NCc2cccs2)CC1,4%,2.5%,-19%,4%,-8%,6%,-5%,?
CC(C)C(C)(C#N)NC(=O)CSc1nncn1-c1ccccc1 (stereo not drawn),4%,.,-1%,6%,3%,0%,.,7%[46.1 µM]
CN1/C(=C\C(=O)CN2C(=O)NC3(CCCCCC3)C2=O)C(C)(C)c2ccccc21,?,-3.1%,20µM*,-3%,-5%,6%,-16%,?
CCCCNC(=O)COC(=O)c1ccc(NC(C)=O)cc1,13%[46.1 µM],.,-12%,.,-22%,0%,.,2%[46.1 µM]
CC(C)Oc1ccc(C(=O)Nc2ccc3c(c2)n(C)c(=O)n3C)cc1,6%,.,20%,13%,-5%,.,.,-21%
COc1ccc(N2CC(C(=O)N/N=C/c3ccccc3)CC2=O)cc1 (stereo not drawn),-6%[46.1 µM],.,-11%,0%,11%,1%,.,?
COc1ccc(CC(=O)OCC(=O)NCc2ccccc2Cl)cc1OC,-16%,.,-17%,.,10%,1%,.,8%
COC(=O)COc1ccc2occ(C(C)=O)c2c1,21%,4.7%,.,-4%,5%,6%,-3%,27%
COc1cc2c(=O)n(Cc3ccco3)c(=O)n(CC(=O)c3cccc(Br)c3)c2cc1OC,?,-4.2%,-18%,17%,-4%,-9%,12%,?
CCN(CC)S(=O)(=O)c1ccc2c(c1)nc(SCc1nc3ccsc3c(=O)[nH]1)n2CC,5%,-2.8%,-12%,-14%,-5%,1%,16%,?

# Continuation:
SMILES,Lassa entry inh,Cruzain Triton,2A StopGo,NS1 inh,RE007 growth inh,SARS PLpro yeast,Cruzain inh noDet,MARV entry inh
C#CCn1c(=O)n(-c2cccc(Cl)c2C)c(=O)c2c3c(sc21)CN(C(C)=O)CC3,.,-2.2%,0%,.,.,.,?,10%[46.1 µM]
C/C(=N\Nc1cc(N2CCCCC2)nc(C)n1)c1ccc(Br)cc1,.,.,?,-148%,?,-5%,.,.
CCOCCCNC(=O)c1cn(CC)c2ccc(S(=O)(=O)N3CCOCC3)cc2c1=O,27%[46.1 µM],-4.5%,-3%&3%,-5%,-4%,2%,1%,-10%&-10%[46.1 µM]
CCc1cccc2c(-c3csc(=NC)n3C)c[nH]c12,-3%,.,-2%,.,-8%,1%,.,?
O=C(COc1ccc(S(=O)(=O)NCc2ccccc2)cc1Cl)NCc1ccncc1,-8%,.,38%[activator],3%,-25%,-4%,.,-1%[46.1 µM]
Cc1cccc(NC(=O)c2sc3nc(N4CCOCC4)c4c(c3c2N)CCCC4)c1,.,.,5%,5%,-5%,1%,.,.
C=CCn1c(=O)c2ccccc2n2c(SCc3nnc(-c4ccccc4Br)o3)nnc12,0%,-0.3%,.,0%,-2%,2%,-27%,?
CCOc1ccc2c(c1)nc(SCC(=O)c1cccs1)n2C,14%,-1.7%,35%[activator],-7%,-26%,-13%,10%,-1%
O=C(NC(=S)Nc1ccc(S(=O)(=O)Nc2nccs2)cc1)c1ccccc1,4%,-2.6%,35%[activator],5%,4%,-2%,1%,-1%
CCOC(=O)NC(C)N1C(=O)C2C3C=CC(C3)C2C1=O (stereo not drawn),.,.,-5%,.,-18%,-3%,.,8%[46.1 µM]
Cc1c(Cl)cccc1NC(=S)N1CCN(Cc2ccccc2)CC1,-1%,3.6%,-24%,-30%,-3%[3.69 µM],4%,0%,0%
Cc1cc(N2C(=O)C3CCC(c4ccccc4)CC3C2=O)no1 (stereo not drawn),?,.,-2%,3%,-14%,0%,.,-15%[46.1 µM]
COc1cc(OC)c(NC(=O)C2CCN(S(=O)(=O)c3ccc4c(c3)oc(=O)n4C)CC2)cc1Cl,1%[46.1 µM],-1.6%,-15%,.,.,.,-6%,-1%[46.1 µM]
CCOC(=O)Cn1cnc(-c2ccc([N+](=O)[O-])cc2)c1,?,-8.2%,73%[activator],11%,-10%,1%,-10%,7%
Cc1ccc(Nc2nc3ccccc3c3nncn23)cc1C,?,-7.8%,-21%,.,.,.,?,?
NCCCC[C@H](N)c1nnc([C@H](CC(=O)O)NC(=O)C2CCNCC2)o1,.,.,-17%,-3%,25%,0%,.,.
CCCN(CCC)S(=O)(=O)c1ccc(NS(C)(=O)=O)cc1,4%,-3.7%,-17%,-1%,6%,5%,9%,2%
CC(C)c1cnc2c(c1SCC(=O)NCc1ccccc1)c(=O)n(C)c(=O)n2C,-11%[46.1 µM],1.6%,2%,.,.,.,-11%,.
CCCSc1ncc(Cl)c(C(=O)Nc2ccc(S(=O)(=O)N3CCCCC3C)cc2)n1 (stereo not drawn),?,-5.7%,3%,.,.,.,-26%,?
COc1cc(CNC2CCCC2)cc(OC)c1OC,-11%,1.9%,9%,0%,14%,3%,-8%,3%
O=C1c2ccccc2C(Nc2ccc(S(=O)(=O)N3CCOCC3)cc2)N1c1ccccn1 (stereo not drawn),.,-8.8%,-9%,-3%,-8%,-5%,-12%,.
Cn1cnc(S(=O)(=O)Nc2ccc(Cl)c(C(F)(F)F)c2)c1,-1%[46.1 µM],.,0%,-1%,-11%,15%,.,2%[46.1 µM]
O=C1N=NC2=C1c1c3ccccc3c(O)n1CC2,5%,.,-13%,8%,5%,2%,.,4%[46.1 µM]
CCc1nnc(NC(=O)CSc2nnc(Cc3cccn3C)n2C)s1,.,2.0%,0%,-17%,2%,-9%,-5%,.
Cc1nc(-c2ccccc2O)n(-c2ccccc2)n1,18%,1.4%,-19%,1%,-20%,4%,7%,-3%

# Going on with the list:
SMILES,Lassa entry inh,Cruzain Triton,2A StopGo,NS1 inh,RE007 growth inh,SARS PLpro yeast,Cruzain inh noDet,MARV entry inh
OCCCNc1c2ccccc2nc2ccccc12,?,.,-10%,-5%,-12%,-3%,.,7.1µM*
Cc1ccnc(NC(=O)c2ccc(Cl)c(NC(=O)c3ccccc3C)c2)c1,.,.,-12%,-17%,-6%,3%,.,.
CCOC(=O)c1cnc2ccc(OCC)cc2c1NCCN1CCOCC1,9%,.,0%,3%,-25%,1%,.,-29%[46.1 µM]
Cc1c(O)c2c3c(cccc3c1O)C(=O)N(c1ccccc1)C2=O,-17%,-7.5%,22µM*,-23%,-23%,-33%,-7%,-38%
O=C(Nc1ccon1)c1cc2ccccc2oc1=O,?,-6.4%,27%,9%,-18%,-5%,-5%,8%
CN(C(=O)Nc1cnccc1C(F)(F)F)C1CCCCC1,14%[46.1 µM],.,5%,-2%,4%,0%,.,-2%[46.1 µM]
CC(=O)N(C)c1ccc(NS(=O)(=O)Cc2ccccc2)cc1,2%,3.0%,7%,10%,3%,-3%,-7%,21%
Nc1ccc2ccccc2c1N=Nc1ccccc1,?,.,28%,.,?,.,.,1%[46.1 µM]
O=C(Nc1ccccc1C(F)(F)F)C1CCN(c2nnc(-n3cccc3)s2)CC1,23%[46.1 µM],-3.2%,0%,.,.,.,8%,.
CCCc1cc(=O)oc2cc(C)cc(OC(C)C(=O)NCc3ccccn3)c12 (stereo not drawn),.,.,-26%,-18%,-15%,4%,.,.
Cc1ccc(C(C)C)cc1OCCN1CCCC1,?,3.0%,-16%,15%,4%,-14%,-8%,?
CCOC(=O)c1c(NC(=O)c2cccs2)sc(C)c1C,2%,-10%,-11%,-6%,-2%,-2%,6%,3%
CCCC(=O)Nc1ccc(NC(=S)NC(=O)c2cccs2)cc1,11%,.,-2%,-5%,3%,0%,.,-4%
CCN(c1ccccc1)S(=O)(=O)c1cccc(C(=O)OCc2nc3sc(C)c(C)c3c(=O)[nH]2)c1,.,-3.1%,-24%,28%,-2%,-12%,?,-7%
O=C1OCCN1C(=O)[C@H]1[C@H](c2ccc(F)cc2)C(c2cccc(Cl)c2)=NN1c1ccc(Br)cc1,.,-2.4%,-26%,.,3%,-7%,16µM*,.
Cc1ccc2c(c1)C1CN(C)CCC1N2C(=O)Nc1cccc(Cl)c1 (stereo not drawn),?,0.5%,9%,-31%,-10%,?,-3%,?

# An unsorted share of the library, and some 4.6% of all compounds hit somewhere here.
